# Screens (PubChem)
# PABP polyA inh = PABP-poly(A) binding inhibition; P11940; PABP-poly(A) RNA binding, fluorescence polarization; inhibition, % at 35 µM; 1% of 290,000 active;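 active = 50% or more with normal probe brightness, or confirmed in later tests; inconclusive = above 50% with abnormal brightness, or retests that disagree; inactive = below 50% or failed in later tests; about a fifth of its hits are not listed in these tables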;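 also: calls also rest on retests at 20 µM and on dose response follow-up; controls were probe without protein and protein plus probe with vehicle; some compounds called inactive have numbers as strong as hits; many hits fall short of the cut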
# Target sequence (P11940 whole entry, looked up): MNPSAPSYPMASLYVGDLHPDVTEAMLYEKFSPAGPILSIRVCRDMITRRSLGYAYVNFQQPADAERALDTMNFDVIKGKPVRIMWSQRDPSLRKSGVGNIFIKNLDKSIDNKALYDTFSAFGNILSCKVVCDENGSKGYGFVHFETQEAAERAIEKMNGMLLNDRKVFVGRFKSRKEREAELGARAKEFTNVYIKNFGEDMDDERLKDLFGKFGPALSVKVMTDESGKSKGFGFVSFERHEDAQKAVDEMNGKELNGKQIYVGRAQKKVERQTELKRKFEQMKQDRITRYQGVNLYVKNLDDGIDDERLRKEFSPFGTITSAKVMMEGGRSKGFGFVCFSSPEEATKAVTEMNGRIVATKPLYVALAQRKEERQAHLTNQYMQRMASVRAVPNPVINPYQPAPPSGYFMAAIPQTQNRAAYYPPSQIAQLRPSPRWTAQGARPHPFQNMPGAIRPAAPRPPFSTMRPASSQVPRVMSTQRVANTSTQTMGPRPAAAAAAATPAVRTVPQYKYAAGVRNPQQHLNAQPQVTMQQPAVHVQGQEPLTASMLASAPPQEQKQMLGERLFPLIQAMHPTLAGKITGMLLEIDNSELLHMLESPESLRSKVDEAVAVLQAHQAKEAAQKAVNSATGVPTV
# MT1-MMP act inh = blocks activation of human MT1-MMP | GFP/RFP ratio change, % at 20 µM | 0.061% of 360,000 active | HT1080 RFP-PRO-GFP cells, GFP/RFP ratio fluorescence, overnight; percent of plate control window, DMSO zero | P50281;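 active = GFP/RFP ratio change of at least 30% with cell ATP level not reduced by more than half and red fluorescence within 50% of control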; also: strong numbers were not always called active
#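 Test system: HT1080 RFP-PRO-GFP cells; Benchmarks: DMSO and RFP-L50D-GFP cell wells; Timing: cells overnight before dosing, compound overnight, 37 °C, 5% CO2; Compound: one 20 µM compound dose with 1% DMSO; Read-out: GFP/RFP fluorescence ratio.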
# eIF4H inh = inhibitors of RNA binding by human eIF4H | AID 2012 | 0.94% of 290,000 active | eIF4H fluorescence polarization binding assay | inhibition, % at 35 µM;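 active = 50% or more with normal probe brightness, or confirmed in later tests; inconclusive = above 50% with abnormal brightness, or retests that disagree; inactive = below 50% or failed in later tests; about a fifth of its hits are not listed in these tables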;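 also: calls also rest on retests at 20 µM and on dose response follow-up; 0% = protein and probe with vehicle and 100% = probe without protein; strong numbers were not always called active; many hits fall short of the cut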
# UUG fidelity = modulators of start codon recognition fidelity in yeast; S. cerevisiae UUG-firefly luciferase reporter, luminescence/redox ratio; 0.13% of 350,000 active; AID 602363; activity score, % at 18.7 µM;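 active = replicate mean at a twofold rise or more, about +100% in these data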;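 also: firefly luciferase made from a UUG start codon reports start codon fidelity; reporter light over untreated wells divided by growth signal over untreated wells; some hits fall short of that in this replicate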
# CSC inhib = cancer stem cell inhibition. cancer stem cell-like cells viability, luminescence. inhibition, % at 7.5 µM. 1.1% of 300,000 active. AID 2717;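 active = mean at 75% or more and at least half the replicates too; inconclusive = mean and replicates disagree; tested in HMLE shEcad cells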;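 also: 0% = median of negative and 100% = median of positive control wells; the first replicate is given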
# Rce1 inh = blocks yeast Ras-converting enzyme; Q03530; yeast membranes, quenched prenylated peptide cleavage fluorescence; calls only; 0.27% of 290,000 active; AID 2563;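 active = fall in fluorescence gain of 50% or more versus controls, with final raw signal at or below 3038400; inconclusive = same 50% fall but final raw signal above 3038400; inactive = fall in fluorescence gain under 50%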;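 also: plate controls were neutral control wells for no effect and wells lacking membranes for full effect; tested at 10 µM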
# HIV Env fusion = blocks HIV Env-driven cell-cell fusion; HeLa-JRFL Env/CEM21 cell fusion, luciferase; AID 651610; 1.1% of 360,000 active; inhibition, % at 12.3 µM;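 active = mean replicate inhibition score of at least 50 and every replicate individually at or above 50; inconclusive = only one of the two criteria met; inactive = mean below 50 and not all replicates reaching 50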;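 also: 0% = plate neutral controls and 100% = maraviroc near 300 nM; one replicate is shown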
# eIF4H inh retest = also measured in eIF4H inh; calls as there; inhibition, %; compound at 20 µM; confirmation average;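 mean of two retest wells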
# PABP polyA inh retest = further read-out of PABP polyA inh, marked with its call; inhibition, %; compound at 20 µM; confirmation repeats;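 mean of two retest wells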
# MT1-MMP act inh RFP = recorded beside MT1-MMP act inh, whose call it bears; RFP signal change, %; measured here: RFP expression control read;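 0 = vehicle wells; hits needed this value within 50% of zero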
# An asterisk follows results filed as active; i = inactive; ? = inconclusive; / = no result given.
SMILES,PABP polyA inh,MT1-MMP act inh,MT1-MMP act inh RFP,eIF4H inh,UUG fidelity,CSC inhib,Rce1 inh,HIV Env fusion,others
COc1ccc(CCN2CCCC(CN(C)C(=O)c3ccoc3C)C2)cc1 (stereo not drawn),-1,2,3,0,3,-6,i,2,
CCNC(=O)NC(=O)c1csc([N+](=O)[O-])c1,-4,-1,1,0,/,-10,i,1,
C=CCOc1ccc2ccccc2c1CNCCCN1CCOCC1,10,9,0,4,/,-6,i,/,
C=C[C@@H]1c2ccccc2N(S(=O)(=O)c2ccc(C)cc2)[C@H](c2ccc(OC(C)=O)cc2)C1(C#N)C#N,/,-9,-8,/,-9,?,/,9,
COc1cc(CNc2ccc3c(c2)CCC3)cc(OC)c1O,4,1,3,-2,-7,-11,i,5,
COc1cccc(Nc2nc(-c3cccnc3)cs2)c1,4,-3,-5,0,14,-4,i,-107,
O=C(COc1ccc(C(=O)Nc2ccc(Cl)cc2)cc1)NCc1ccccc1,1,1,-2,-3,-18,2,i,/,
CC(=O)NC(Cc1ccccc1C)C(=O)NC1CCN(C(=O)NCc2ccccc2)CC1 (stereo not drawn),12,3,6,-4,-16,/,i,-8,
CC(=O)CSc1nc2ccc(Nc3nc(N4CCOCC4)nc(N4CCOCC4)n3)cc2s1,-9,-25,-19,-11,-8,-7,i,-7,
CCOC(=O)CCN,/,0,6,/,-3,-14,i,13,
O=C(NCCn1ccc2ccccc21)c1cccc([N+](=O)[O-])c1,-11,1,-1,-9,/,7,i,7,
CCCc1cc(=O)oc2c(C)c(OCC(=O)N3CCC(C(N)=O)CC3)ccc12,15,1,0,-14,-18,-15,i,/,
O=C(COc1ccc(Cl)cc1)N1CCCCCCC1,4,0,2,-1,-5,-18,i,7,
COc1ccccc1-c1cnn2c(NCCc3ccccc3)cc(C)nc12,-1,-5,-2,-10,-6,10,i,-19,
CC(=O)N1Cc2[nH]c3ccccc3c2CC1C(=O)O (stereo not drawn),11,5,6,-4,-12,/,i,1,
O=C1C(Cl)=C(Nc2cccc(O)c2)C(=O)N1Cc1ccccc1,-1,0,-5,1,/,-4,i,-1,
CCOC(=O)c1nnn(CC(=O)N2N=C(c3ccc(Cl)cc3)CC2c2ccc(OC)cc2)c1C(=O)OCC (stereo not drawn),-7,19,0,-6,-11,-8,i,-20,
O=C(CCCc1nc2ccccc2s1)Nc1nccs1,9,-2,1,8,-45,1,i,-69,
c1ccc2c(NC3CCCC3)nnc(NC3CCCC3)c2c1,3,0,-4,2,-10,8,i,-494,
O=C(O)c1ccc(-c2nc(-c3ccccc3Cl)cs2)cc1,0,3,3,-5,/,1,i,2,
COc1ccc(N2CCOCC2)c(NC(=O)c2ccc3c(c2)OCO3)c1,4,-3,-4,5,/,-10,i,2,
Cn1c(N)c(C(=O)COC(=O)c2ccc(F)cc2Cl)c(=O)n(C)c1=O,/,4,0,/,-13,-12,/,8,
CCC1(c2ccc(F)cc2)NC(=O)N(CC(=O)N2CCN(S(=O)(=O)c3ccc(C)cc3)CC2)C1=O (stereo not drawn),/,-2,-4,/,12,-14,i,/,
CS(=O)(=O)N(CC(=O)NCc1ccccc1Cl)Cc1ccccc1,1,-5,-2,1,0,/,i,-58,
CCOC(=O)c1ccc(NC(=O)C2(c3ccc(OC)cc3)CCOCC2)cc1,6,-5,-5,4,8,-9,i,/,
O=C(CN1CCN(S(=O)(=O)c2ccccc2)CC1)N1CCc2ccccc21,/,-1,2,/,-12,-12,/,0,
O=C(C[C@@H]1C/C=C\C[C@@H](Cc2ccc(F)cc2)C(=O)OC[C@H]2CCCN2C1=O)NCCO,/,-2,3,/,3,-14,/,-6,
Cc1cc(NC(=O)c2cc(C3CC3)on2)no1,4,7,6,5,-7,3,i,-35,
Cc1cccc(OCc2nnc(SCC(=O)N(C)C3CCCCC3)o2)c1,/,4,-2,/,-12,/,/,10,
COC1=CCC2([N+](=O)[O-])CN(CCO)CC1([N+](=O)[O-])C2 (stereo not drawn),-2,/,/,5,/,-11,i,0,
O=C(O)/C=C/C(=O)N1CCN(c2ccccc2F)CC1,5,0,5,0,-11,5,i,4,
CC(=O)O[C@]1(C(C)=O)CC[C@H]2[C@@H]3C=C(C)C4=CC(=O)CC[C@@H]4[C@H]3CC[C@@]21C,/,-2,0,/,-8,9,/,/,
COc1ccccc1CN=Cc1[nH]c2ccc(Br)c(Cl)c2c1O,16,-34,7,0,-16,-5,i,i,
CCc1ccccc1N(CC(=O)NCc1ccc(OC)cc1)C(=O)CCC(=O)Nc1ccccn1,2,-5,-4,-10,12,/,i,4,
O=C(Nc1ccccc1)OCCN1CCN(Cc2ccccc2)CCC1=O,-4,0,-4,6,-5,-16,i,-38,
Cc1cc(NC(=O)CSc2nnc(-c3ccc([N+](=O)[O-])cc3)o2)no1,-11,2,3,0,3,6,i,-5,
CC(=O)c1ccc(S(=O)(=O)Nc2cccc(S(=O)(=O)NC3=NCCC3)c2)cc1,3,0,7,-12,-17,10,i,-35,
CCN(CC(=O)Nc1c(F)cccc1F)C(=O)CCNS(=O)(=O)c1ccc(C)c(C)c1,/,-1,-1,/,-7,-13,i,8,
CC(C)CN(C(=O)COC(=O)c1cccc2ccccc12)c1c(N)n(Cc2ccccc2)c(=O)[nH]c1=O,/,-13,-13,/,/,-6,i,/,
O=C(Cn1c2[n+](c3ccc(C(F)(F)F)cc31)CCCCC2)Nc1ccccc1,4,-2,-1,5,/,8,i,-10,
CCCCOP(=O)(c1ccc(N(C)C)cc1)C(O)c1c(Cl)cccc1Cl (stereo not drawn),13,-2,1,2,-7,-8,i,59*,
COc1ccc(NC2=NCC(=O)N2c2ccccc2)c(OC)c1,8,1,8,-1,4,-12,i,/,
CC(C)n1c(/N=C/c2c[nH]c3ccccc23)nc2ccccc21,2,1,4,7,1,9,i,/,
O=C(COc1ccc2ccc(=O)oc2c1)N1CCc2ccccc21,-4,-6,-7,-1,/,-3,i,-11,
O=C(c1ccco1)N1N=C(c2cccs2)CC1c1cc([N+](=O)[O-])ccc1O (stereo not drawn),12,-2,3,-11,1,-1,i,0,
Cc1ccc(-n2ncc3c(=O)n(CC(=O)N(C(C)C)C(C)C)cnc32)cc1,8,1,2,6,5,-15,i,-7,
CSc1ccc(C(=O)NC2CCSc3ccccc32)cc1 (stereo not drawn),-4,1,5,-1,-14,-15,/,-14,
CCOc1cc(N2CCOCC2)c(OCC)cc1NC(=O)c1cc(-c2ccco2)nc2ccccc12,4,-15,-9,11,-8,12,/,/,
CCN(C(=O)COC(=O)[C@H](C)N=C1NS(=O)(=O)c2ccccc21)C1CCS(=O)(=O)C1 (stereo partly drawn),/,-2,3,/,-19,/,/,0,
COc1ccc(/C=N/NC(=O)c2ccc(O)cc2O)cc1CSc1ccccn1,16,3,2,91,8,16,i,4,eIF4H inh retest=-5;PABP polyA inh retest=3
CC1Cc2ccccc2N1C(=O)COC(=O)C1(c2ccccc2F)CCCC1 (stereo not drawn),-6,-14,-16,-2,-1,55,i,7,
CN1CCc2c(OCC(=O)N3N=C(c4cccs4)CC3c3ccc(F)cc3)cccc2C1=O (stereo not drawn),-9,-3,-3,-10,0,2,i,-33,
Cn1c(N)c(C(=O)COC(=O)c2nc(Cl)ccc2Cl)c(=O)n(C)c1=O,-2,3,6,-4,-23,-6,i,-1,
CCCC1CCC(c2nc(-c3cccnc3)no2)CC1 (stereo not drawn),-1,5,-1,-1,1,-11,i,-59,
COc1ccc(NS(=O)(=O)c2ccc(OC)c(N(C)S(=O)(=O)c3ccc(Cl)cc3)c2)cc1,6,-3,-25,-7,-12,-6,i,/,
CCc1cc2c(=O)[nH]c(Cc3ccc(Cl)cc3)nc2s1,0,0,-2,-7,-10,-4,i,/,
COc1ccc(C(CC(=O)N2CCCC2)c2c(O)cc(OC)cc2OC)cc1 (stereo not drawn),-7,-2,2,2,6,3,i,-30,
Clc1ccccc1CSc1nnc(-c2ccncc2)o1,2,-4,-7,-1,-16,13,i,-55,
CCC(C)NC(=O)C1CCC(=O)N(c2cc(OC)c(OC)c(OC)c2)C1c1ccc(OC)cc1 (stereo not drawn),4,4,1,12,-20,-9,i,-101,
CC(C)Nc1ccc(Cl)cc1[N+](=O)[O-],-3,/,/,-2,/,7,i,/,

# Part of the list above in order of SMILES length, largest number first.
SMILES,PABP polyA inh,MT1-MMP act inh,MT1-MMP act inh RFP,eIF4H inh,UUG fidelity,CSC inhib,Rce1 inh,HIV Env fusion,others
COc1ccc(NS(=O)(=O)c2ccc(OC)c(N(C)S(=O)(=O)c3ccc(Cl)cc3)c2)cc1,6,-3,-25,-7,-12,-6,i,/,
CN1CCc2c(OCC(=O)N3N=C(c4cccs4)CC3c3ccc(F)cc3)cccc2C1=O (stereo not drawn),-9,-3,-3,-10,0,2,i,-33,
O=C(c1ccco1)N1N=C(c2cccs2)CC1c1cc([N+](=O)[O-])ccc1O (stereo not drawn),12,-2,3,-11,1,-1,i,0,
COc1ccc(C(CC(=O)N2CCCC2)c2c(O)cc(OC)cc2OC)cc1 (stereo not drawn),-7,-2,2,2,6,3,i,-30,
CC(C)n1c(/N=C/c2c[nH]c3ccccc23)nc2ccccc21,2,1,4,7,1,9,i,/,
CCc1cc2c(=O)[nH]c(Cc3ccc(Cl)cc3)nc2s1,0,0,-2,-7,-10,-4,i,/,

# (listing goes on)
SMILES,PABP polyA inh,MT1-MMP act inh,MT1-MMP act inh RFP,eIF4H inh,UUG fidelity,CSC inhib,Rce1 inh,HIV Env fusion,others
COc1ccccc1CC(=O)N(CCC1=CCCCC1)c1c(N)n(Cc2ccccc2)c(=O)[nH]c1=O,/,-3,0,/,-2,8,i,-18,
Cc1cccc(Nc2cc(=O)n(C)c(=O)[nH]2)c1,-7,-3,2,0,-3,-12,i,-4,
CCOc1ccc(S(=O)(=O)N2CCCCC2)cc1NC(=O)Cc1ccsc1,/,2,-5,/,-10,/,/,5,
O=C(O)c1cccc(NC(=O)c2cn(-c3ccccc3)nc2-c2ccc(F)cc2)c1,4,5,-1,-3,-1,7,i,-5,
COc1cc2ccccc2ccc1=NO,/,-7,-9,/,-7,/,/,31,
Cc1ccc(Nc2nc3c([nH]2)c(=O)n(C)c(=O)n3C)cc1,2,-8,-4,-1,-4,-8,i,/,
N#Cc1ccc(COn2nnc3ccccc32)cc1,-6,0,-1,-6,/,2,i,-12,
CC(=O)c1ccc(NC(=O)CSc2nnc(Cn3c(=O)sc4ccccc43)n2C)cc1,-1,-1,3,-3,-5,-14,/,7,
O=C(O)C1C2CCC(O2)C1C(=O)NCc1ccncc1 (stereo not drawn),-3,2,5,8,-16,-13,i,/,
O=C(COc1cccc2ccccc12)N1CCN(c2ccccc2)CC1,-8,-2,0,2,-9,-5,i,/,
Cc1cccc(OCC(=O)Nc2sc3c(c2C#N)CCC3)c1,13,1,1,1,-3,11,i,/,
Cc1nnc(NC(=O)C2CCCN(c3ncccn3)C2)s1 (stereo not drawn),-12,7,7,-7,/,10,i,-34,
CCCn1cnc2cc(NCc3ccccn3)ccc21,7,3,0,5,-35,-1,i,-19,
c1coc(CNC2C3CC4CC(C3)CC2C4)c1 (stereo not drawn),-6,-2,2,-17,-11,12,i,/,
COC(=O)CCCCC1SCC(NC(=O)c2ccccc2)C1=O (stereo not drawn),5,-1,2,4,/,-15,i,-42,
CCN1CCN(c2sc(S(C)(=O)=O)nc2S(=O)(=O)c2ccc(C)cc2)CC1,5,-2,0,-7,-28,1,i,8,
CC(C(=O)O)c1cccc(Oc2ccccc2)c1 (stereo not drawn),/,-1,0,/,-10,/,/,18,

# Only part of the results is shown, so the mix of outcomes need not match the whole.
